Bioassay records: PubChem BioAssay, ICCB-Longwood Screening Facility, Harvard Medical School
GIV-Gai inh – GIV-Galpha-i interaction inhibition; P08753; Galpha-i3/FITC-GIV peptide fluorescence polarization, 90 min; hits give low values; scaled: aluminum fluoride 0%, vehicle 100%; percent of control (FP), % (test concentration not listed); actives 0.42% (n = 210,000); AID 1224905;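 active = replicate mean at 85% of control or lower, very high polarization wells dropped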;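 also: wells of about 15 µL received 100 nL stock; the first replicate is given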
Target sequence (P08753 whole entry, looked up): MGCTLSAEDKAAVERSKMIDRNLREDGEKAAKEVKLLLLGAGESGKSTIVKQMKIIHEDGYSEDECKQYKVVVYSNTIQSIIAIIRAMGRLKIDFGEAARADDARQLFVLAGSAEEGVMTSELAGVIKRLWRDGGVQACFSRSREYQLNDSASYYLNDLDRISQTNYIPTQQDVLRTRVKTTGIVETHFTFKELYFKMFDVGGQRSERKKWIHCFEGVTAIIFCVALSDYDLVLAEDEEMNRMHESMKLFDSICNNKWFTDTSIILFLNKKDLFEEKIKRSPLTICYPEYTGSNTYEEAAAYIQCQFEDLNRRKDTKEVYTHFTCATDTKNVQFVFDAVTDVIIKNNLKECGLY
Sa growth 42C – S. aureus growth inhibition; AID 720641; actives 0.53% (n = 170,000); S. aureus RN4220 growth, OD600, 20 h, 42 °C; hits give low values; relative growth, % (no concentration beside the values);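 active = growth at 42 °C up to 50% and 20 or more points under that at 30 °C, or under 10% at both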;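 also: 300 nL library stock went into each well; scaled to the means of positive and negative controls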
HCMV UL50-53 inh – inhibitors of HCMV UL50-UL53 nuclear egress complex interaction | actives 0.15% (n = 190,000) | inhibition, % (no concentration beside the values) | HTRF UL50-UL53 interaction, normalized percent inhibition;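 active = both replicates at 50% or more, plus weaker picks with an unusually low signal ratio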;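 also: stock transfer was 100 nL into about 20 µL; 0% = negative control wells and 100% = wells with untagged competitor protein; inactives centre near -12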
Sa growth 42C second temp – second read-out of Sa growth 42C, no call of its own (marks repeat the call); relative growth, %; measured here: growth at 30 °C;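 optical density after 20 h as mean of two plates; 100% = untreated growth and lower means inhibition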
Active calls of the source: *; · = not tested or not shown; & = joins results of further samples.

SMILES	GIV-Gai inh	Sa growth 42C	Sa growth 42C second temp	HCMV UL50-53 inh
CN1CCC(N(C)C(=O)c2cc(-c3ccc(F)cc3)nc3ccccc23)CC1	·	75	97	-20
O=C(O)c1ccccc1C(=O)n1cnc2ccccc21	97	93	92	-6
CC(=O)c1c(C)[nH]n(-c2nc3ccccc3s2)c1=O	117	163	86	7
O=C(NCc1cccc2ccccc12)c1ccc2c3c(cccc13)CC2	·	98	108	-4
Cc1cc(C(=O)NCC2CCCO2)on1 (stereo not given)	97	100	91	-1
CCOC(=O)c1c(-c2ccc(C)cc2C)csc1NC(=O)c1ccccc1Cl	108	93	93	-18
COc1ccc(CNC(=O)c2[nH]c3ccc(OC)cc3c2N2CCCC2=O)c(OC)c1	102	·	·	-30
CC(=O)n1ccc(-c2ccc(C#Cc3ccccc3)cc2)n1	102	77	84	5
c1csc(CNc2ccc3c(c2)oc2ccccc23)c1	101	101	87	-9
Cc1ccc(SCc2nc(-c3ccc(C(=O)NCc4ccc(Cl)cc4)cc3)oc2C)cc1	102	106	94	·
CCOc1ccc(-c2cc(CCCC(=O)NCCc3ccc(OC)c(OC)c3)no2)cc1	102	101	77	9
CCOC(=O)c1c(NC(=O)c2sc3ccccc3c2Cl)sc2c1CCC(C(C)(C)C)C2 (stereo not given)	103	·	·	-12
CCN(CC)S(=O)(=O)c1ccc(C(=O)N2CC(=O)Nc3ccc(F)cc3C2c2ccccc2)cc1 (stereo not given)	97	110	89	-16
CN(C)/C=C1\SC(=S)N(c2ccc(Br)cc2)C1=O	-65*	71	85	-104
CCn1c(SCCc2ccccc2)nc2cc(S(=O)(=O)N3CCOCC3)ccc21	·	93	104	4
CCOC(=O)c1ccc(NC(=O)C2CC(=O)N(Cc3ccc(OC)cc3)C(=Nc3ccccc3)S2)cc1 (stereo not given)	105	·	·	-11
CCCCN(Cc1nc2nc(C)cc(C)n2n1)C(=O)c1ccc(C)cc1	107	·	·	-2
COc1ccccc1N(C)C(=O)Cn1c(=O)oc2cc(S(=O)(=O)N3CCCC3)ccc21	103	88	88	10
CC(C)COc1ccc(C(=O)N2N=C(C(F)F)CC2(O)C(F)F)cc1 (stereo not given)	109	99	99	6
CN(C)C(=O)c1ccc(Oc2cc(Cl)cc(Cl)c2)o1	109	107	82	-7
O=C(NCc1ccco1)c1cccc(-c2nnc(-c3ccccc3)o2)c1	107	106	71	-2
COc1ccc(-c2cc3nc(C)c(CCC(=O)N4CCCC4)c(C)n3n2)c(OC)c1	106	101	85	-16
COc1ccc(CCn2c(=S)[nH]c3ccc(Cl)cc3c2=O)cc1OC	103	91	82	·
CCN1/C(=C(\C#N)c2nc(C#N)c(C#N)nc2N2CCOCC2)Nc2ccccc21	67*	93	83	-7
NCCCC[C@H](N[C@@H](CCc1ccccc1)C(=O)O)C(=O)N1CCC[C@H]1C(=O)O	108	97&96	96&94	-33&-26&-7
CCCN1C(=O)/C(=c2\sc3n(c2=O)C(c2ccc(OC(C)=O)cc2)C(C(=O)OCC)=C(C)N=3)c2ccccc21 (stereo not given)	109	·	·	-3
Cc1cc(C)n(C(=O)c2sccc2S(=O)(=O)N(C)c2ccc(C)c(Cl)c2)n1	95	·	·	6
O=C(O)C1Cc2c([nH]c3ccccc23)C(CCc2ccccc2)N1 (stereo not given)	106	·	·	2
CCN1C(=O)c2ccccc2S(=O)(=O)c2ccc(C(=O)N(C)Cc3ccccc3)cc21	102	·	·	-28
CC(C)CC1NC(C(=O)O)Cc2c1[nH]c1ccccc21 (stereo not given)	103	100	92	-12
CCOc1ccc(CCNC(=O)C2CCCN(S(C)(=O)=O)C2)cc1OCC (stereo not given)	106	94	92	-15
CCOC(=O)c1cn(CC(=O)Nc2ccc(F)cc2F)c2nc(C)ccc2c1=O	108	·	·	-17
COC(=O)c1ccccc1NC(=O)NCc1ccccn1	104	106	92	-11
COc1ccc(CN2C(=O)C3CCCCC3C2=O)cc1S(=O)(=O)Nc1ccc2c(c1)OCO2 (stereo not given)	97	·	·	-17
Cc1ccc(C)n1-c1nnc(N2CCCC(C(=O)Nc3ccccc3Br)C2)s1 (stereo not given)	105	98	87	9
CCNC(=O)N1CCc2cc(S(=O)(=O)Nc3ccc(OC)cc3OC)ccc21	102	·	·	-40
CCOC(=O)c1cccc(NC(=O)CCS(=O)(=O)c2cccc3nsnc23)c1	105	90	83	-41
Cc1cccc(N(C)S(=O)(=O)c2ccc3c(c2)n(C)c(=O)c(=O)n3C)c1	105	104	87	·
COc1ccccc1CNC(=O)CCS(=O)(=O)c1cccc2nonc12	94	97	78	·
CCCCCCc1cc2cc(C#N)c(=O)oc2cc1O	-3.8*	84	61	-20
CCc1ccc(NCc2cc3cc4c(cc3n(CC(=O)Nc3ccc(C)cc3)c2=O)OCO4)cc1	113	101	99	·
COc1cc(OC)c(N(C)C(=O)c2cn(C)c(=O)c3cc(OC)c(OC)cc23)cc1Cl	107	107	89	16
CC(=O)NCc1ccc(S(N)(=O)=O)cc1	·	84	94	6
Cc1nc2sccn2c(=O)c1S(=O)(=O)NC1CC1	104	119	87	·
Cc1sc(-c2ccno2)cc1S(=O)(=O)N1CCC2(CC1)OCCO2	108	·	·	-23
O=C1/C(=C/c2cccs2)N=C(c2cccs2)N1Nc1ccccc1	111	97	117	3
COc1cc2ncc(C(=O)c3ccccc3)c(S(=O)(=O)c3ccccc3)c2cc1OC	92	·	·	-17
CCOc1ccc2nc(NCCNC(=O)C3CCCCC3)c(C#N)cc2c1	105	109	104	14
O=C(NCc1ccccc1)c1cc(=O)[nH]c2ccccc12	·	84	89	-27
COc1ccc(NC(=O)COC(=O)c2ccc(N3CCCC3=O)cc2)cc1	·	89	86	-19
COc1ccc(-n2ccnc(NCc3ccc(Cl)cc3)c2=O)cc1	107	120	99	·
N#CC1(NCCc2ccccc2)CCN(Cc2ccccc2)CC1	97	112	98	-2
Cc1cccc(NC(=O)CNS(=O)(=O)c2cccs2)c1	102	89	94	-4
Cc1cc(-c2csc(N)n2)c(C)n1Cc1ccco1	·	75	92	10
COC(=O)c1scc(C)c1NC(=O)/C=C/C(=O)O	99	92	87	-8
CC1CC(Nc2ccccc2)c2ccccc2N1C(=O)c1cccc(Br)c1 (stereo not given)	99	·	·	-18
COc1ccc(CNc2oc(-c3ccc(COc4ccc(OC)cc4)o3)nc2C#N)cc1	101	115	89	17
Cc1ccccc1NC(=O)N1CCC(CN2CCCC2)CC1	103	132	97	·
O=C(Nc1cccc2nsnc12)c1cc(-c2ccncc2)nc2ccccc12	103	·	·	-21
c1ccc(-c2nc(N3CCCCC3)c3ccccc3n2)cc1	97	72	80	27
The list continues:
SMILES	GIV-Gai inh	Sa growth 42C	Sa growth 42C second temp	HCMV UL50-53 inh
CCOC(=O)c1ccc(N=c2oc3cc(N(CC)CC)ccc3cc2C(N)=O)cc1	114	·	·	-14
Cc1cccc(NC(=O)N2CC=C(c3c[nH]c4ccccc34)CC2)c1C	243&142	114	76	-1
N#Cc1c(NC(=O)CO/N=C/c2cccs2)sc2c1CCCCC2	·	108	94	-27
C=CCNC(=O)Cn1c2c(c(=O)n3nc(-c4ccc(C)cc4)nc13)CCC2	107	·	·	-10
CCC(=O)N=C1SC2CS(=O)(=O)CC2N1CCc1ccccc1 (stereo not given)	103	115	96	7
C[n+]1ccn(C/C(N)=N/O)c1	104	93	92	-4
COc1ccc(C(C)=NNC(=O)C(C)Nc2ccc(C)cc2)cc1 (stereo not given)	101	93	92	-10
CC(=O)Oc1cc2c(C(=O)NCC3CCCO3)c(C)oc2c2ccccc12 (stereo not given)	104	95	84	-30
CC(=O)n1cc(/C=C2\N=C(c3cccc4ccccc34)OC2=O)c2cc(Br)ccc21	104	·	·	-10
O=C(/C=C/c1ccccc1)Nc1nnc(-c2ccc(Br)cc2)o1	103	98	82	-14
c1ccc2c(c1)CCN(CCNc1nn3nnnc3c3ccccc13)C2	97	·	·	-24
Cc1ccc(CNC(=O)CSCc2c(C)noc2C)cc1	·	101	106	0
CCn1c(NC(=O)Nc2ccccc2OC)nc2ccccc21	·	94	99	-15
O=C(Nc1ccccc1)N1CCCC1	100	88	79	-10
CCCCNc1nc(Cl)nc2nc(NCCO)n(Cc3ccccc3)c12	105	·	·	-7
CCc1cccc(CC)c1N(COC)C(=O)Cn1nnc2ccccc21	·	105	97	2
CC(=O)Nc1nonc1-c1nnc(SCc2ccc(F)cc2Cl)n1C	106	101	94	6
Cc1ccc(C)n1-c1nnc(N2CCCC(C(=O)NCc3ccccc3)C2)s1 (stereo not given)	104	104	99	-5
O=C(Cn1ncc2c1-c1ccccc1OC2)N1CCCCC1	100&103	86	87	21
O=C(NC1CC1)C1CCCN(c2ccnc(-c3ccc(F)cc3)n2)C1 (stereo not given)	107	·	·	-33
CCN(C(=O)CSc1ncc(S(=O)(=O)c2ccc(C)c(Cl)c2)c(=O)[nH]1)c1cccc(C)c1	111	76	48	·
CCOC(=O)N1CCC(NC(=O)c2cnn3c(C(F)(F)F)cc(-c4ccccc4)nc23)CC1	103	93	89	-20
Cc1noc(C)c1C(=O)NCc1ccc(-c2csnn2)cc1	94	96	97	5
Cc1cc(C)c(NC(=O)COC(=O)c2ccco2)c(C)c1	·	105	85	-25

Reprinted from above (13 entries):
SMILES	GIV-Gai inh	Sa growth 42C	Sa growth 42C second temp	HCMV UL50-53 inh
Cc1ccc(CNC(=O)CSCc2c(C)noc2C)cc1	·	101	106	0
CCn1c(NC(=O)Nc2ccccc2OC)nc2ccccc21	·	94	99	-15
O=C(Nc1ccccc1)N1CCCC1	100	88	79	-10
CCCCNc1nc(Cl)nc2nc(NCCO)n(Cc3ccccc3)c12	105	·	·	-7
CCc1cccc(CC)c1N(COC)C(=O)Cn1nnc2ccccc21	·	105	97	2
CC(=O)Nc1nonc1-c1nnc(SCc2ccc(F)cc2Cl)n1C	106	101	94	6
Cc1ccc(C)n1-c1nnc(N2CCCC(C(=O)NCc3ccccc3)C2)s1 (stereo not given)	104	104	99	-5
O=C(Cn1ncc2c1-c1ccccc1OC2)N1CCCCC1	100&103	86	87	21
O=C(NC1CC1)C1CCCN(c2ccnc(-c3ccc(F)cc3)n2)C1 (stereo not given)	107	·	·	-33
CCN(C(=O)CSc1ncc(S(=O)(=O)c2ccc(C)c(Cl)c2)c(=O)[nH]1)c1cccc(C)c1	111	76	48	·
CCOC(=O)N1CCC(NC(=O)c2cnn3c(C(F)(F)F)cc(-c4ccccc4)nc23)CC1	103	93	89	-20
Cc1noc(C)c1C(=O)NCc1ccc(-c2csnn2)cc1	94	96	97	5
Cc1cc(C)c(NC(=O)COC(=O)c2ccco2)c(C)c1	·	105	85	-25

Next section
SMILES	GIV-Gai inh	Sa growth 42C	Sa growth 42C second temp	HCMV UL50-53 inh
Cn1cnnc1Sc1cc(C#N)c(C#N)cc1Sc1nncn1C	103	110	92	23
CCn1c(SCC(=O)OC)nc2c1c(=O)n(C)c(=O)n2C	105	88	99	3
NC(=O)C1CCN(C(=O)/C=C/c2cccc(Br)c2)CC1	·	120	85	-54
COc1ccc(S(=O)(=O)c2csc3c2NC(=O)CC3c2ccsc2)cc1 (stereo not given)	101	·	·	-7
CCn1c2ccccc2c2cc(C3C(C#N)=C(C)NC(C)=C3C#N)ccc21	·	97	97	-12
Nc1ccccc1Nc1c(N)c(=O)oc2ccccc12	99	87	82	·
Cc1nc2ccc(-n3ccc(=O)cc3)cc2s1	·	69	98	16
CS(=O)(=O)N(Cc1ccco1)CC(O)Cn1c2ccccc2c2ccccc21 (stereo not given)	105	86	88	-3
Cc1ccc(C(=O)CSc2nc(N)c(C#N)c(-c3cccs3)c2C#N)c(C)c1	98	·	·	-8
COc1cccc(CNc2ncnc3onc(C)c23)c1	101	94	101	·
CCOc1ccc(N2C(=O)c3ccccc3NC2(CC)CC)cc1	99	92	85	·
O=C(CCN(CCc1ccccc1)C(=O)c1ccc(F)c(Cl)c1)N1CCNCC1	97	·	·	-11
CCc1cccc(C)c1NC(=O)CN1CCCN(Cc2ccccc2Cl)S1(=O)=O	99	91	91	·
S=C(NC1CCCCC1)C(=S)NC1CCCCC1	97	97	95	12
O=C(COC(=O)/C=C/c1ccco1)NC1CCCCC1	·	100	95	12
Cc1onc(-c2ccccc2)c1C(=O)NC1CCOc2ccccc21 (stereo not given)	·	103	92	-11
O=c1[nH]c2cc3c(cc2c(=O)n1CCc1nc(-c2ccc4c(c2)OCO4)no1)OCO3	111	·	·	-4
CC(C)NS(=O)(=O)c1cccc(C(=O)O)c1	·	79	92	3
CCC(C)c1ccc(NC(=S)NC(=O)c2ccco2)cc1 (stereo not given)	103	83	61	·
COc1ccccc1N1CCN(S(=O)(=O)c2ccc(Oc3ccccc3Cl)cc2)CC1	102	·	·	13
O=C(O)C1CCCN1C(=O)Nc1ccc(Br)cc1 (stereo not given)	97&101	103	81	-16&-17
c1ccc(Nc2nc(CN3CCN(c4ncccn4)CC3)cs2)cc1	·	113	88	-15
CCOC(=O)C1=C(C)N=c2s/c(=C\c3ccc(OC)c(OC)c3OC)c(=O)n2C1c1ccc(OC)cc1 (stereo not given)	110	·	·	3
CCn1cc(C(=O)NC2CCCCCC2)c(=O)c2ccc(C)nc21	99	105	90	·
O=C(CCCn1nc(-c2ccccc2)c2ccccc21)N1CCc2ccccc21	104	96	89	·

This is a random part of the collection. About 0.83% of those tested had a hit in this group.
